Sfp PPTase inh = qHTS Assay for Inhibitors of Bacillus subtilis Sfp phosphopantetheinyl transferase (PPTase); 4'-phosphopantetheinyl transferase ffp (Bacillus subtilis), Q9F4F7; Biochemical Sfp PPTase activity, qHTS; Potency, µM, without a hit: max response, negative = inhibition, most hits filed as inhibitors; 310,000 compounds, 3.5% hits; AID 1490, 2009; active = well fitted inhibition curve with a large enough effect; inconclusive = small, poorly fitted or top-dose-only effect, or another doubt; inactive = no such curve, though single readings can be large or run the other way;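 note: the enzyme is Sfp with the accession as filed and its product quenches rhodamine fluorescence; potency is the fitted concentration of half-maximal effect; 0% = enzyme reaction without inhibitor and -100% = no enzyme wells; top concentration of the series not given in the record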
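Fluorescence-quenching assay with 15 nM Sfp, 5 uM rhodamine-CoA and 12.5 uM BHQ-2-labelled ybbR peptide in pH 7.6 Hepes/MgCl2 buffer. Enzyme was pre-incubated with compound for 15 min at room temperature. Rate was taken from the 30-min fluorescence change (525/598 nm).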
D2 potentiator = Beta-Arrestin HTS for Positive Allosteric Modulators of the Human D2 Dopamine Receptor: Potentiators; D(2) dopamine receptor (Homo sapiens), P14416; DiscoveRx D2 beta-arrestin cells, luminescence, 90 min; 100% = 57 uM dopamine signal; potentiation, % (no concentration beside the values); 360,000 compounds, 0.23% hits; AID 624464, 2012; active = potentiation of 50% or more; inconclusive = 30% to 50%; inactive = 30% or less;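 note: compound concentration not given in the record; tested on top of an EC20 dose of dopamine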
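PathHunter beta-arrestin assay in DiscoveRx D2 cells. Compounds were added with an EC20 of dopamine (50 nM final) for 90 min at 37 deg C. Luminescence was read 1 h after detection reagent, with 57 uM dopamine as the EC100 control.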
ClpP mod = qHTS Assay for Activators of ClpP | purified B. subtilis ClpP, FRET peptide cleavage, 20 min | Potency, µM (series often up to 57.5 µM), for inactives: at the top dose activity change, negative = active | 340,000 compounds, 1.9% hits; active = well fitted falling curve with a large enough effect; inconclusive = small, poorly fitted or top-dose-only effect; inactive = no such curve, though single readings can be large or run the other way; note: potency is the fitted concentration of half-maximal effect; the source files actives as falling curves though it sought activators and does not explain the sign; nearly all actives have a fitted effect of over 65% in size; many hits overshoot -100%
Target sequence (P80244 whole entry, looked up): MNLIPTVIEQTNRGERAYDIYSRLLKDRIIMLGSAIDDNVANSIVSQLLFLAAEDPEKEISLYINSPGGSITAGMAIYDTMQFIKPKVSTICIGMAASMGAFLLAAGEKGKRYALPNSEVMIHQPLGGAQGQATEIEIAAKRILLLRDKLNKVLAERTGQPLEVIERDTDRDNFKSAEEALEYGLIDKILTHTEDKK
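ClpP 10 microg/mL final, pH 8 Tris/KCl buffer with BSA, glycerol, Tween-20; compound pinned in; FRET-FV substrate; RT 20 min; Ex320/Em430; ΔFRET vs ADEP 5.8 microM, DMSO, no enzyme.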
Menin-MLL FL inh = qHTS Assay for Inhibitors Targeting the Menin-MLL Interaction in MLL Related Leukemias: Competition With Fluorescein Labeled MLL-derived Peptide; Fluorescence polarization, fluorescein-MLL peptide displacement from menin; AID 1766, 2009; FP activity change, % at 61.4 µM; 290,000 tested, under 10 active; inconclusive = falling polarisation curve, or a change in total fluorescence; inactive = total fluorescence flat and polarisation flat or rising; no compound was filed as active; the % refers to the polarisation; negative = inhibition;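 note: % of control where 0% means no effect; inhibitors lower the polarisation; unlabelled MLL peptide was the positive control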
gsp agonist = qHTS for Agonist of gsp, the Etiologic Mutation Responsible for Fibrous Dysplasia/McCune-Albright Syndrome: qHTS. AID 624287, 2012. 340,000 compounds, 0.13% hits. gsp mutant cells, cAMP HTRF, 30 min; control for the full effect not named in the record. Potency, µM (titrated, usually from 76.9 µM), without a hit: top-dose activation (cAMP increase), most hits filed as activators; active = well fitted activation curve with a large enough effect; inconclusive = small, poorly fitted or top-dose-only effect, or another doubt; inactive = no such curve, though single readings can be large or run the other way; cell line not stated here;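 note: phosphodiesterase inhibitor Ro 20-1724 added with compounds to block cAMP breakdown; potency is the fitted concentration of half-maximal effect; nearly all actives have a fitted effect of over 60% in size; about a fifth of the inactives were tested at one dose only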
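Cells in DMEM/10% FBS with G418 were pretreated with compounds in DMSO plus […] (300 uM stock) for 30 min at 37C. cAMP was measured by HTRF (cAMP-d2 plus anti-cAMP antibody-K) after 30 min at room temperature.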
gsp antagonist = qHTS for Antagonists of gsp, the Etiologic Mutation Responsible for Fibrous Dysplasia/McCune-Albright Syndrome: qHTS; gsp-mutant cells, cAMP HTRF, 30 min; control for the full effect not named in the record; Potency, µM (doses to about 76.9 µM), without a hit: top-dose activity change, negative = inhibition, hits mostly inhibitors; 340,000 compounds, 0.4% hits; active = falling curve of any shape with a large fitted effect; inconclusive = falling curve, mostly with a smaller effect; inactive = flat or rising curve; cell line not stated here;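 note: intracellular cAMP measured with PDE inhibitor Ro 20-1724 present during compound exposure; potency is the fitted concentration of half-maximal effect; % is set by controls: 0 for no effect and ±100 for the full control effect; nearly all actives have a fitted effect of over 65% in size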
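HTRF cAMP measurement after 30 min RT detection following 30 min, 37C compound treatment alongside […] (added as 300 uM solution) in G418-selected cells seeded at 2000/well and grown 16–24 h.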
TRPV1 potentiator = HTS Assay for Compounds that Act as Potentiators of the Vanilloid Receptor 1. 320,000 compounds, 0.02% hits. TRPV1-expressing cells, Fluo-8 calcium influx, capsaicin EC20 potentiation; host cell line not named in the record; control for the full effect not named in the record. AID 540277, 2011. potentiation, % at 8.33 µM. Transient receptor potential cation channel subfamily V member 1 (Homo sapiens), Q8NER1; active means potentiation above 80%; inconclusive means 30% to 80%; inactive means below 30%; note: 0% is about no effect
Target sequence (Q8NER1 whole entry, looked up): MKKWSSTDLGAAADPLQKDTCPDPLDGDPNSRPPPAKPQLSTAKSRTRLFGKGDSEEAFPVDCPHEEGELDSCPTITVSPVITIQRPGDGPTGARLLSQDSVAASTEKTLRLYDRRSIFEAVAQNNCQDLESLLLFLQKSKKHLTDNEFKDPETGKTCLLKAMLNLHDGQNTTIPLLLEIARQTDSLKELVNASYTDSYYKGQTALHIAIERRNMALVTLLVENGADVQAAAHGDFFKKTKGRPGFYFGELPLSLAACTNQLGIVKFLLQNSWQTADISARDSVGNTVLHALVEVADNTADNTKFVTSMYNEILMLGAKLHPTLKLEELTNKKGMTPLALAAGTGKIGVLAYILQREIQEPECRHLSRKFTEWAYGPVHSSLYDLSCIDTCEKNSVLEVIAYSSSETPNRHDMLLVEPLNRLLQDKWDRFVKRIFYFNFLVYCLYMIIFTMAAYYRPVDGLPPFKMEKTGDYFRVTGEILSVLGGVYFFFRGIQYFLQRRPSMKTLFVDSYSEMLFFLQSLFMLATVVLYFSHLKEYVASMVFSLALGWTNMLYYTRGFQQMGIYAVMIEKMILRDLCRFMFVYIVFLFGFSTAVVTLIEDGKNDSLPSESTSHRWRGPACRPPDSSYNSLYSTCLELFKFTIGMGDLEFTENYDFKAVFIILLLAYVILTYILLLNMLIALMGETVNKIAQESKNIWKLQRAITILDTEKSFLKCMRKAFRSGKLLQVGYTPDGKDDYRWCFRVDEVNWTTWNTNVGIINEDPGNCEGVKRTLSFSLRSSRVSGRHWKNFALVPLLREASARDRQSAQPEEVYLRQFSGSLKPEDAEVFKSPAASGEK
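Fluo-8 calcium influx in TRPV1-expressing cells, kinetic read (ex 480/em 520 nm). Compound added and read 3 min for agonist activity, followed by capsaicin at EC20 final and 2 min further read for enhancement.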
Starred values were filed as active, the others as inactive; ? = inconclusive; / = not tested or not shown; & = joins results of further samples; [ ] = remark or other dose. Outcome played no part in choosing rows; 5.1% or so of the library scored in one or more.

Results follow in this order: gsp antagonist	Sfp PPTase inh	gsp agonist	D2 potentiator	TRPV1 potentiator	ClpP mod	Menin-MLL FL inh
> CC1CCCC(NS(=O)(=O)c2cccc3nsnc23)C1C (stereo unspecified)
 : 7%	8%	-82%[inhibitor]	-8	-6	-1.3%	0.8
> CNC(=O)c1cc2ncc(C(F)(F)F)cc2s1
 : 0%	18%	?	-3	-13	/	-5.3
> Cc1c(C(=O)N2CCN(CCc3ccccn3)CC2)oc2ccc(Cl)cc12
 : -13%	1%	-12%	-26	-8	-2.3%	-3.9
> CCC(=O)N(CCc1ccccc1)Cc1cc2cccc(C)c2[nH]c1=O
 : 6%	6%	1%	-19	22	-6.0%	5.7
> C/C(=N\NC(=S)Nc1ccc(C)cc1)c1cccc(N)c1
 : -6%	29%	-2%[15.4 µM]	-7	3	/	0.5
> COc1ccccc1N(C(=O)c1snc(C(N)=O)c1N)C(C(=O)NCc1ccccc1)c1ccc(O)cc1 (stereo unspecified)
 : -21%	23%	-3%[15.4 µM]	-1	21	/	0.5
> O=C(COC(=O)c1ccc(F)c([N+](=O)[O-])c1)NC(=O)NCc1ccccc1
 : 0%	/	0%	6	/	-2.0%	/
> Cn1nnnc1SCC(=O)NCCc1ccc(Cl)cc1
 : 11%	15%	-18%	-23	-2	-0.1%	0.1
> COc1ccc(-c2cnc(SCCNC(=O)c3ccc4c(c3)OCO4)[nH]2)cc1
 : -3%	/	-14%	-12	-2	-2.5%	/
> CC(OC(=O)C1=COCCO1)C(=O)NC1CCCC(C)C1C (stereo unspecified)
 : /	/	-96%[inhibitor]	-10	/	1.5%	/
> NC(=O)NC(=O)COC(=O)CCCSc1nc2ccccc2s1
 : -3%	-3%	14%	-3	-10	-5.0%	-4.0
> CC(=O)Nc1ccc(NC(=O)c2ccccc2S(=O)(=O)c2ccccc2[N+](=O)[O-])cc1
 : 9%	16%	-5%	-10	-1	0.5%	/
> O=C1CSC(=S)N1Cc1cccs1
 : 10%	/	-46%[inhibitor]	4	/	0.3%	/
> Cc1ccc(OCc2nnc(SC(C)C(=O)O)n2Cc2ccccc2)cc1 (stereo unspecified)
 : /	-29%	9%[15.4 µM]	-25	9	/	1.1
> COc1ccc(CNC(=O)CSc2nnc(NC(=O)C3CC3)s2)cc1
 : 6%	3%	-3%	-1	-1	/	3.0
> O=C1/C(=C\c2cccnc2)CN(Cc2ccccc2)C/C1=C\c1cccnc1
 : -6%	?	-11%	4	1	-2.2%	0.6
> COc1ccc(CO[C@@H]2O[C@H](CO)[C@@H](O)[C@H](O)[C@H]2NC(C)=O)cc1OC
 : 7%	4%	2%	-4	8	-3.3%	0.3
> CN(CC1CCCO1)S(=O)(=O)c1ccc(C(=O)Nc2ccc([N+](=O)[O-])cc2)cc1 (stereo unspecified)
 : -28%	-11%	?	-7	-15	-1.7%	-2.0
> CCn1cc(/C=C(\NC(=O)c2ccccc2OC)C(=O)NCCCn2ccnc2)c2ccccc21
 : -26%	17%	-5%	0	-5	-0.1%	3.1
> Cn1c(COc2ccccc2)nnc1SCC(=O)Nc1ccc(N2CCOCC2)cc1
 : 4%	13%	-10%	4	-11	/	5.6
> C(=N\Nc1nc(Nc2ccccc2)nc(N2CCCCC2)n1)/c1ccco1
 : /	11%	/	/	-9	/	-0.1
> CCOc1ccc(CCNC(=O)CSc2cc(=O)n(C)c3cc(Cl)ccc23)cc1OCC
 : 8%	9%	-8%[15.4 µM]	-7	12	-9.7%&1.6%	-0.1
> COc1ccc(C=NN=C2c3ccccc3-c3ccccc32)cc1O
 : -16%	/	?	-16	/	1.1%	/
> O=c1c2ccccc2nc2ccccn12
 : 11%	4%	17%[15.4 µM]	-3	-1	/	0.2
> COc1cccc(OCC(=O)NNC(=S)Nc2ccc(Cl)cc2Cl)c1
 : -7%	9%	0%	-15	13	1.1%	1.7
> Cc1ccsc1C(=O)OCC(=O)NCCc1ccccc1
 : 6%	/	0%	2	/	2.4%	/
> Cc1cccc(CSCCNC(=O)CCSc2ccccc2)c1
 : -4%	-6%	-1%[15.4 µM]	-7	-14	/	2.0
> Cc1cc(O)c(C2(O)C(=O)Nc3ccccc32)cc1C (stereo unspecified)
 : 8%	1%	-37%	4	-20	-0.1%	-2.8
> CCOC(=O)c1ccccc1NC1c2ccccc2C(=O)N1c1cc(C)ccn1 (stereo unspecified)
 : -16%	-7%	16%	-3	16	4.1%	2.2
> O=C(NCc1cccnc1)c1ccc(Br)o1
 : 15%	/	-2%	-13	-20	-7.2%	/
> C[C@H](CO)N1C[C@H](C)[C@H](CN(C)S(=O)(=O)c2ccccc2)OCc2cnnn2CCCC1=O
 : /	/	2%	4	/	-0.3%	/
> CCN(c1ccccc1)S(=O)(=O)c1ccc(Cl)c(C(=O)N2CCCC2)c1
 : -9%	/	?	3	-12	-0.2%	/
> C[C@H](NC(=O)c1ncn2c1C(=O)N[C@@H](C)C2)C(=O)OC(C)(C)C
 : /	/	-37%[inhibitor]	0	/	1.0%	/
> CCOc1ccc(S(=O)(=O)N2CCC(C(=O)NCc3cccnc3)CC2)cc1C
 : 5%	8%	7%[15.4 µM]	-1	-1	/	-1.6
> O=[N+]([O-])c1ccc(/C=N/Nc2nc(-c3ccccc3)c3cc(Br)ccc3n2)o1
 : 3%	9%	5%[15.4 µM]	-7	-3	-2.3%	?
> O=C(CCCN1C(=O)c2ccccc2C1=O)N1CCC(c2ccccc2)C1 (stereo unspecified)
 : -1%	4%	?	5	1	-1.6%	-2.7
> O=C(COc1ccccc1)N(Cc1nnc(-c2ccccc2Cl)o1)C1CC1
 : 1%	/	6%	-1	5	-2.3%	/
> COc1ccc(C2N=C(Nc3ccc(C)cc3)Nc3nc(C)cc(=O)n32)cc1 (stereo unspecified)
 : 4%	2%	-5%	-5	18	-8.5%	-2.2
> COc1ccccc1N(C)S(=O)(=O)c1ccc(C)c(C(=O)Nc2nccs2)c1
 : 2%	/	-55%[inhibitor]	6	-3	-1.2%	/
> Cc1cc(C)cc(C(=O)NCC(=O)OCC(=O)c2cc(C)n(CC(F)(F)F)c2C)c1
 : 8%	-2%	-13%	1	-1	/	1.1
> CCOC(=O)Cn1c2c(c(=N)c3ccccc31)CCC2
 : -4%	10%	4%	-13	-33	36%	2.7
> CCN(CC)S(=O)(=O)c1ccc(NC(=O)COC(=O)CN2C(=O)c3ccccc3C2=O)cc1
 : ?	5%	4%	-3	-3	-0.6%	-1.3
> Cc1cc(C2C(C#N)=C(N)Oc3n[nH]c(C)c32)c(C)s1 (stereo unspecified)
 : 6%	-18%	-7%	-9	-5	18µM*	3.0
> Nc1c(Cl)ncnc1NCc1cccnc1
 : 9%	18%	7%	-1	7	/	2.2
> O=C(NC(=S)NCCCN1CCOCC1)c1ccc([N+](=O)[O-])cc1
 : 6%	-13%	-2%[15.4 µM]	0	11	/	0.2
> Cc1ccc(-n2c(-c3ccco3)n[nH]c2=S)cc1
 : 2%	79µM*	?	-6	-5	/	26
> CC1=CC(C)(C)N(C(=O)CNC2CCCCC2)c2cc(C)ccc21
 : /	79µM*	-3%[15.4 µM]	-12	-23	/	1.8
> CC(C)(C)OC(=O)N1CCN(C(=O)c2[nH]cnc2C(=O)Nc2ccc(Cl)cc2)CC1
 : -10%	/	/	-24	/	2.4%	/
> Cc1noc(C)c1NC(=O)Nc1ccc2c(c1)C(=O)N([C@H](C)CO)C[C@H](C)[C@@H](CN(C)S(=O)(=O)c1ccc(F)cc1)O2
 : 8%	/	-32%[inhibitor]	-9	/	2.0%	/
> COc1ccc2c(c1)Cc1cc(NC(=O)c3ccccc3-c3ccccc3C(=O)O)ccc1-2
 : /	/	5%	-8	/	-0.3%	/
> Cc1nc2cc(-c3cccs3)[nH]n2c(=O)c1C
 : 6%	/	0%	-4	/	14µM*	/
> CN(C)c1nc(Nc2ccc(Cl)cc2)nc(OCC#N)n1
 : -24%	-18%	-20%	-33	8	2.3%	3.1
> Cc1cc(C)c(C(=O)COC(=O)Cn2c(C)csc2=O)cc1C
 : -22%	-3%	-45%[inhibitor]	9	-14	0.5%	/
> OC[C@H]1O[C@@H](n2cnc3c(NC4CCCC4)nc(Cl)nc32)[C@H](O)[C@@H]1O
 : -5%	5%	/	-1	-3	0.9%	/
> F[B-](F)(F)c1cc2cc(Br)ccc2s1
 : -4%	/	/	3	/	0.3%	/
> CC1CCN(S(=O)(=O)c2ccc3c(c2)C(Cl)(Cl)C(=O)N3)CC1
 : /	/	-14%	-27	/	85%	/
> CCC(=O)Nc1ccc(Oc2ccc3c(c2)C(=O)NC3=O)cc1
 : 8%	11%	-53%[inhibitor]	-7	-21	-2.2%	0.4
> CCc1cccc(CC)c1NC(=S)NCCc1ccc(O)c(O)c1
 : 4%	-25%	-8%	-34	-11	-3.3%	3.1
> CC(C)C(NC(=S)Nc1ccccc1)C(=O)O (stereo unspecified)
 : 3%	?	-5%[15.4 µM]	-7	-4	0.2%	5.4
> C=C(C)CSC1=C(C#N)C(c2ccsc2)CC(=O)N1 (stereo unspecified)
 : -2%	28µM*	11%	-2	5	-1.4%	0.9
> O=C1CC(c2ccco2)Cc2nc(Nc3nc(-c4ccccc4)c4ccccc4n3)ncc21 (stereo unspecified)
 : 1%	-17%	-7%	3	20	?	2.5
> Cc1c(O)ccc2c(=O)c(Oc3ccccc3)coc12
 : 2%	10%	3%	-5	-1	-1.0%	11

Source: PubChem
